KCNQ2 pot: potentiators of rat KCNQ2 potassium channel; Potassium voltage-gated channel subfamily KQT member 2 (Rattus norvegicus), O88943; CHO-K1 KCNQ2, FluxOR thallium flux fluorescence; hits give high values; B-score at 10 µM; hit rate 0.54% among 310,000;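 active = fluorescence ratio B-score at least 3 SD of library B-scores, with initial fluorescence B-score within 3 SD, cut at about 5.3 in these data; same plate scores as AID 2156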;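 also: B-score of peak minus minimum over baseline fluorescence ratio after K+ and Tl+ stimulus; positive B-score means potentiation of KCNQ2 with more thallium influx and brighter signal; only the inactives scoring about 0 or higher are listed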
Target sequence (O88943 whole entry, looked up): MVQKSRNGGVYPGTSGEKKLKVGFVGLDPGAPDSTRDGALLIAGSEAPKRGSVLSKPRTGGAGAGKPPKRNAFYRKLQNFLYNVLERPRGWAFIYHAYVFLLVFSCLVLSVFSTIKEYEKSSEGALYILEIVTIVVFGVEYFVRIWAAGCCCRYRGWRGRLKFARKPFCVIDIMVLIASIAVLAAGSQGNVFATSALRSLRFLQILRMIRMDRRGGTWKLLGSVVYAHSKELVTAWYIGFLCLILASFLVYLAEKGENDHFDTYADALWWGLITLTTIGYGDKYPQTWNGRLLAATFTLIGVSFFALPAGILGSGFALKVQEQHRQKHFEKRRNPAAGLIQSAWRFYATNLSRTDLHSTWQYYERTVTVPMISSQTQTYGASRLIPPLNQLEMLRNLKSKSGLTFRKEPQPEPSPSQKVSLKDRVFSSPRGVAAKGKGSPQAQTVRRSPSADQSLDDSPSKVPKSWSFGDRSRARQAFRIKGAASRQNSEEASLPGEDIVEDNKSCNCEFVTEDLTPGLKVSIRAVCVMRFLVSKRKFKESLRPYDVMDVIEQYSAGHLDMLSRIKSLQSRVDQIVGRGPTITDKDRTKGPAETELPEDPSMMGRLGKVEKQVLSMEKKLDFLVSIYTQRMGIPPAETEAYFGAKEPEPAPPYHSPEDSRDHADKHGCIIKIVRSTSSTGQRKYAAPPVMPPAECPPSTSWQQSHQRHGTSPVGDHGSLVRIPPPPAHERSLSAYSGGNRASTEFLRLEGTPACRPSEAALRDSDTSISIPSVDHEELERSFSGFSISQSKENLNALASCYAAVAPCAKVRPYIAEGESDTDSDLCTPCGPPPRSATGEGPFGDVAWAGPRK
KCNQ2 pot baseline: also measured in KCNQ2 pot; calls as there; B-score; compound at 10 µM; measured here: initial fluorescence intensity artifact check;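 brightness before thallium and not channel activity; 0 = typical well and far values either way flag optical interference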
* hit, by the source's call; nt = not tested or not shown. These rows are one share of the data; count on the stated rates, not on these rows.

smiles | KCNQ2 pot | KCNQ2 pot baseline
CCN(CC(=O)Nc1ccc(NC(C)=O)cc1)C(=O)Cc1cccc2ccccc12 | 0.16 | 0.35
CC(=O)Oc1ccc(NC(=O)CCC2CCCCC2)c(C(=O)O)c1 | 0.14 | -0.01
COC(=O)C1(C(=O)OC)NOC2C(=O)N(c3ccccc3)C(=O)C21 (centres undefined) | 1.4 | -2.2
CC#CCCCC(=O)Nc1cccc(C(=O)O)c1 | 0.41 | -0.23
O=C(COC(=O)c1ccc(Cl)c(Cl)c1)Nc1cccnc1Cl | 1.1 | 1.5
Cc1oc2ccc(OCc3ccc(Cl)cc3)cc2c1C(=O)O | 2.5 | -0.99
O=C(N/C(=C\c1ccc(O)cc1)C(=O)N1CCCCC1)c1ccccc1 | 1.5 | 0.03
OC(COCc1cccs1)CN1CCN(c2ccccc2Cl)CC1 (centres undefined) | 0.21 | 2.2
CCc1nnc(NC(=O)CCN2C(=O)C3CCCCC3C2=O)s1 (centres undefined) | 0.84 | 0.01
CC(=O)Nc1cccc(/C(C)=N\NC(=O)c2ccc(Cn3nc([N+](=O)[O-])c(Cl)c3C)o2)c1 | 1.1 | -0.88
COc1ccc(N(C(=O)CNC(=O)c2ccco2)C(C(=O)NC2CCCC2)c2cccnc2)cc1 (centres undefined) | 0.05 | 1
O=c1c(-c2ccccc2)coc2cc(O)ccc12 | 0.27 | 1.6
S=C(NCCCNC(=S)Nc1ccccc1)Nc1ccccc1 | 0.3 | -1.6
CCc1ccc2[nH]c3nc(SCC(=O)NCC4CCCO4)nnc3c2c1 (centres undefined) | 1 | 0.7
CCOC(=O)CC1COCCN1C(=O)c1cc(COc2ccc(F)cc2Cl)on1 (centres undefined) | 0.21 | -1.9
CCN(CC)C(=O)CSc1nc2sc(C)c(C)c2c(=O)[nH]1 | 0.01 | -0.76
CCc1nc(Cl)c(C#N)c2c1CSC(C)(C)C2 | 1.1 | 0.84
Cc1nnc(SCC(=O)N2CCC(Cc3ccccc3)CC2)n(N)c1=O | 0.01 | 1.8
CCc1n[nH]c(=S)n1/N=C/c1c(C)nn(-c2ccccc2)c1Cl | 1.4 | -2.1
Cc1[nH]c(=O)[nH]c(=O)c1S(=O)(=O)NCCOC12CC3CC(CC(C3)C1)C2 | 0.51 | -0.63
COc1ccc(N2CCN(C(=S)Nc3ccc(F)cc3)CC2)cc1 | 1.2 | 0.44
CC(=O)Nc1ccc2c(c1)ncn2-c1ccc(C)cc1 | 0.58 | 0.06
Cc1csc(SCC(=O)Nc2ccccc2[N+](=O)[O-])n1 | 0.6 | 1.4
O=C(NCCn1c(-c2ccncc2)nc2ccccc21)[C@H]1CCCN1c1nc(CN2CCCCC2)cs1 | 0.64 | -1.1
Clc1cccc(Cl)c1Cn1ccc(C2CC2)n1 | 0.34 | -0.81
COc1ccc(CCN2CC(C(=O)Nc3cc(F)ccc3F)CC2=O)cc1OC (centres undefined) | 0.7 | 0.36
Cc1cc(C)cc(OCC(=O)Nc2ccc3c4c(cccc24)CC3)c1 | 0.25 | -1.4
CCOc1ccc(/C=c2\sc3nc(-c4ccco4)nn3c2=O)cc1OCC | 1.4 | -1.1
COc1ccc(C(=O)Nc2nnc(-c3ccc(F)cc3)s2)c(OC)c1 | 10* | 0.19*
O=C(Nc1ccccc1C(=O)NCC1CCCO1)c1ccccc1 (centres undefined) | 0.18 | 0.36
Cc1ccc(Cn2c(=N)c(C(=O)NCC3CCCO3)cc3c(=O)n4cccc(C)c4nc32)cc1 (centres undefined) | 2.7 | 1.2
CCCCNC(=S)NCC(c1ccccc1)c1c[nH]c2ccccc12 (centres undefined) | 0.99 | -2
O=C(NCC(=O)N1CCCC1C(=O)O)OC1CCCCC1 (centres undefined) | 0.52 | -0.34
Cc1cc(C(=O)NC2CCCc3c2cnn3-c2ccc(C)c(C)c2)no1 (centres undefined) | 0.11 | -1.2
CCOc1ccc(N(CC(=O)Nc2cccnc2)S(C)(=O)=O)cc1 | 1.2 | 0.54
Cc1cccc(NC(=O)CCCn2cc([N+](=O)[O-])cn2)n1 | 0.05 | 0.75
C=CCC(C(=O)NC(C)c1ccccc1)C(=O)NC(C)c1ccccc1 (centres undefined) | 0.45 | -1.6
Cc1ccc(Nc2nc(N)nc(CCl)n2)c(C)c1 | 2 | 0.49
N/C(=N\OC(=O)c1ccc(Cl)cc1Cl)c1ccncc1 | 1.6 | -1.2
Cc1cc(=O)cc(C)n1-c1ccccc1N1CCOCC1 | 0.8 | -0.1
C=CCNC(=O)C1CCN(S(C)(=O)=O)CC1 | 0.16 | 0.07
O=S(=O)(NCc1csc(-c2cccnc2)n1)c1ccc(Cl)s1 | 1.1 | -0.52
O=C(NCCC1=CCCCC1)Nc1ccc2nsnc2c1 | 2.5 | -0.05
Oc1c(C=C2N=c3ccccc3=N2)sc(=S)n1-c1ccc2ccccc2c1 | 0.16 | -1.9
Cc1nonc1OCCN1CCN(c2ccccc2[N+](=O)[O-])CC1 | 1 | -0.34
O=C(COC(=O)Cc1ccccc1F)Nc1cccc(F)c1 | 0.11 | 0.32
CCC(=O)Nc1cc(-c2cc3ccccc3oc2=O)ccc1OC | 1 | -0.33
CCCNC(=O)Cn1c(-c2ccc(F)cc2)cc(C(=O)OCC)c1C | 0.11 | 0.76
CC1(C(=O)NCC2CCCO2)Oc2cccnc2NC1=O (centres undefined) | 0.21 | 4.2
Cc1cc(=O)oc2cc(OC(=O)C3CCN(C(=O)c4ccc(F)cc4)CC3)ccc12 | 0.14 | -0.86

Further compounds follow.
smiles | KCNQ2 pot | KCNQ2 pot baseline
COc1ccc2nc(Nc3nc(CSc4ccc(C)cc4)cc(=O)[nH]3)nc(C)c2c1 | 0.1 | -0.83
CCN(CC)CCN1C(=O)C2C(C(=O)Nc3cccc(C)c3)C3C=CC2(O3)C1C(=O)NC1CCCC(C)C1C (centres undefined) | 0.01 | -1.1
O=C(Nc1ccc(-c2csc(Nc3ccccc3)n2)cc1)c1cc([N+](=O)[O-])cc(C(F)(F)F)c1 | 1.1 | -0.02
O=S(=O)(NCCCN1CCN(c2ccccc2F)CC1)c1cccc2cccnc12 | 1.2 | -0.01
O=c1oc2ccccc2cc1-c1csc(Nc2nc3ccc(F)cc3s2)n1 | 0.49 | 0.47
COc1cccc(N2C(=O)CC(N3CCN(S(=O)(=O)c4ccccc4)CC3)C2=O)c1 (centres undefined) | 0.8 | 0.34
Cc1ccc(NC(=O)CSc2nc(C)c(Cc3ccccc3)c(=O)[nH]2)cc1C | 1.7 | -0.65
O=C(O)CCC(=O)/C=C/c1ccccc1 | 1.6 | -1.6
Cc1ccc(OCC(=O)Nc2ccc3c(c2)nc2n3CCOC2)cc1 | 0.09 | -3.9
COC(=O)C1Cc2c([nH]c3ccccc23)CN1C(C)=O (centres undefined) | 0.94 | -0.01
CCCS(=O)(=O)N1CCCC(C(=O)NCCN2CCOCC2)C1 (centres undefined) | 0.34 | -1.1
COc1ccc(OC)c(N(C)S(=O)(=O)c2ccc3c(c2)N(C(C)=O)CCO3)c1 | 0.83 | -0.52
Cn1c(=O)n(C)c2cc(N3CCCC3)c(NC(=O)c3cccc(F)c3)cc21 | 1.7 | -2.6
O=C(Nc1ccccc1)C1COc2ccccc2O1 (centres undefined) | 1.6 | 0.28
Cc1cc(NC(=O)CSc2nnc(COc3cccc(C)c3C)n2Cc2ccco2)no1 | 0.07 | 1.5
O=C(CSc1nnc2scc(-c3ccccc3)n12)c1ccc2c(c1)OCCO2 | 1 | 0.31
CCOc1ccc(/C=N/NC(=O)c2cc3ccccc3cc2OC)cc1 | 1.1 | -0.28
O=C(Nc1c2c(nn1-c1ccccc1)CS(=O)C2)c1ccc2c(c1)OCO2 (centres undefined) | 0.09 | -0.08
CCOCCn1c(CCCO)nc2ccccc21 | 0.5 | -0.79
CN1C=CC=C/C1=C1\SC(=S)N(c2ccccc2)C1=O | 0.82 | -1.1
Cc1cccc(NC(=S)Nc2cccc(C)n2)n1 | 1.2 | 0
Cn1c(SCc2ccccc2Cl)nnc1-c1cnccn1 | 0.29 | 0.8
O=[N+]([O-])c1ccccc1NCc1ccc(Cl)cc1 | 0.23 | -2.2
Cc1cc(NC(=O)CN2C(=O)NC(C)(c3ccccc3)C2=O)no1 (centres undefined) | 0.56 | -0.81
O=C(COC(=O)c1ccncc1)Nc1cccc(Cl)c1 | 0.93 | -1.9

4 of these compounds, reformatted:
CCOc1ccc(/C=N/NC(=O)c2cc3ccccc3cc2OC)cc1
- KCNQ2 pot: 1.1
- KCNQ2 pot baseline: -0.28
O=C(CSc1nnc2scc(-c3ccccc3)n12)c1ccc2c(c1)OCCO2
- KCNQ2 pot: 1
- KCNQ2 pot baseline: 0.31
Cn1c(=O)n(C)c2cc(N3CCCC3)c(NC(=O)c3cccc(F)c3)cc21
- KCNQ2 pot: 1.7
- KCNQ2 pot baseline: -2.6
O=C(O)CCC(=O)/C=C/c1ccccc1
- KCNQ2 pot: 1.6
- KCNQ2 pot baseline: -1.6

(further entries)
smiles | KCNQ2 pot | KCNQ2 pot baseline
COc1ccc(S(=O)(=O)N(NC2=NS(=O)(=O)c3ccccc32)C(=O)C(C)C)cc1 | 0.74 | 0.23
O=C(CCCNS(=O)(=O)c1cccc2nsnc12)NCc1ccccc1 | 1.3 | 0.05
COC(=O)c1ccc(NC(=O)C2CC(=O)N(c3cc(C)ccc3C)C2)cc1 (centres undefined) | 1.4 | 0.12
COc1cc(N/C(=N/S(=O)(=O)c2ccccc2)c2ccccc2)ncn1 | 0.1 | 1.4
CC(C)c1ccc(CN(C(=O)c2ccco2)C2CCS(=O)(=O)C2)cc1 (centres undefined) | 0.53 | -1.4
COc1ccc(CNC(=O)CSc2nnc3c(n2)[nH]c2ccc(F)cc23)cc1 | 1.2 | 1.3
Cc1ccc(S(=O)(=O)Cn2nnnc2C(C(C)C)N2CCC(C(N)=O)CC2)cc1 (centres undefined) | 0.62 | -0.12
COc1ccc(C)cc1NC(=O)CN(c1ccccc1F)S(C)(=O)=O | 0.43 | -0.62
CCCCn1c(N)c(N(CCOC)C(=O)COC(=O)C(C)Oc2ccc(Cl)cc2)c(=O)[nH]c1=O (centres undefined) | 1 | -0.4
Cn1c(=O)c2c(SCC(=O)N3CCOCC3)nc(C3CCCCC3)nc2n(C)c1=O | 3.8 | 0.82
CCNC(=S)N1CCn2c(nc3ccccc32)C1 | 0.01 | 0
Cc1ccc(-c2nnc(NC(=O)c3ccco3)s2)cc1 | 0.69 | -1.8
COc1cc(CNCCc2ccc(S(N)(=O)=O)cc2)ccc1OCC(=O)NC(C)(C)C | 2.6 | -0.34
O=S(=O)(NCc1csc(-c2cccnc2)n1)c1ccc(Br)cc1 | 0.45 | -0.73
O=C(CN1C(=O)NC2(CCCC2)C1=O)Nc1ccc(F)c(Cl)c1 | 0.33 | 0.22
CC1(C)CC(=O)C/C(=N/NC(=O)c2ccc(-c3ccccc3)cc2)C1 | 0.83 | -0.17
O=C(CC1SC(=Nc2ccccc2)N(CCCO)C1=O)Nc1ccc(Cl)cc1 (centres undefined) | 0.56 | -0.58
C(=C\c1nc(-c2ccncc2)no1)/c1ccccc1 | 1.5 | 0.36
COc1cc(C2C(C(=O)c3ccco3)=C(O)C(=O)N2c2cc(C)on2)cc(Br)c1O (centres undefined) | 0.46 | 0.65
COc1ccc(-n2nc3c(c2NC(=O)c2ccc(Br)o2)CS(=O)(=O)C3)cc1 | 0.49 | 2.2
COc1ccc(NC(=O)Cc2nnc(N)s2)cc1 | 0.7 | -0.72
COC(=O)c1sc(-c2ccc(Cl)cc2)cc1NC(=O)/C=C/C(=O)O | 0.36 | -1
COCCCn1c(-c2ccc(OC)cc2)nc2nc3ccccc3nc21 | 0.73 | -0.7
COCCNc1nc(C)cc(-c2cc(C(=O)NCc3ccccc3)on2)n1 | 0.35 | 0
COc1cc(Br)c(CC(=O)NC2CC2)cc1OC | 1.5 | 0.96

Some of these compounds in order of SMILES length, descending.
smiles | KCNQ2 pot | KCNQ2 pot baseline
O=C(Nc1ccc(-c2csc(Nc3ccccc3)n2)cc1)c1cc([N+](=O)[O-])cc(C(F)(F)F)c1 | 1.1 | -0.02
COCCNc1nc(C)cc(-c2cc(C(=O)NCc3ccccc3)on2)n1 | 0.35 | 0
CCN(CC)C(=O)CSc1nc2sc(C)c(C)c2c(=O)[nH]1 | 0.01 | -0.76
O=c1c(-c2ccccc2)coc2cc(O)ccc12 | 0.27 | 1.6

Additional results
smiles | KCNQ2 pot | KCNQ2 pot baseline
CCCC(=O)N(Cc1cc2ccccc2[nH]c1=O)c1ccccc1OC | 0.4 | -0.33
COc1ccccc1C(=O)C1CCCN(C(=O)c2cnn(C(C)C)c2)C1 (centres undefined) | 0.62 | -0.17
O=C(NCCc1ccccc1F)C1CC(=O)N(c2ccccc2)C1 (centres undefined) | 0.45 | -2.2
O=C(CSc1ncc(S(=O)(=O)c2ccccc2)c(=O)[nH]1)Nc1ccccc1Cl | 0.36 | 0.2
CN(CC(=O)Nc1ccccc1Cl)CC(=O)Nc1sc2c(c1C(N)=O)CCC2 | 0.66 | -0.43
NS(=O)(=O)c1ccc(CCNC(=O)CNC(=O)c2ccc(F)cc2)cc1 | 0.54 | 2.8
COc1ccc(S(=O)(=O)N2CCN(C)CC2)cc1C(=O)N1CCCCC1 | 1.4 | -1.1
N#Cc1c(NC(=O)C2CCCO2)sc2c1CCCCC2 (centres undefined) | 0.02 | 1.3
Cc1cc(C)nc(N(C#N)S(=O)(=O)c2ccccc2)n1 | 0.45 | -0.31
CCn1c(=O)c(C(=O)Nc2ccc(C)cc2C)c(O)c2ccccc21 | 0.49 | 0.03
CCOC(=O)c1c(CN2CCCCC2)oc2ccc(OC)cc12 | 0.76 | nt
CC1CC(C)CN(C(=O)Cn2c(-c3nonc3N)nc3ccccc32)C1 (centres undefined) | 0.81 | -0.58
CCNC(=O)NC(=O)C(C)OC(=O)c1ccc(-n2nc(SC)sc2=S)cc1 (centres undefined) | 2.5 | 0.08
